WNV NS2B-NS3 inh = blocks West Nile virus NS2B-NS3 protease activity; WNV NS2B-NS3 protease, fluorogenic substrate Ex360/Em465; stronger effect = lower value; z-score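 (tested at a level between 10 and 100 µM)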; 0.18% of 65,000 active; AID 577;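 active = z-score at -3 or under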;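 also: score is relative to mean and spread of the compound wells of a plate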
Target sequence (P06935 1371-1501 limits assumed): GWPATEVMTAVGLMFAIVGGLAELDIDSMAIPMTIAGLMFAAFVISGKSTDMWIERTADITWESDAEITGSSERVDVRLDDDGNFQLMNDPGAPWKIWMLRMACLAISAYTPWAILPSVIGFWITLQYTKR
Target sequence (P06935 1502-1679 limits assumed): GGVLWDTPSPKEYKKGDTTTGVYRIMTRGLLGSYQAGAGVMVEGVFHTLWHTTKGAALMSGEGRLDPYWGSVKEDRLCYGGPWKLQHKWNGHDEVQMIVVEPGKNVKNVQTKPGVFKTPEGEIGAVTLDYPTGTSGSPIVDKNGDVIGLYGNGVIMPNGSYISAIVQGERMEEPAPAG
MT1-MMP promoter = MT1-MMP gene expression reporter suppression – cell-based, luciferase reporter, luminescence (AID 618) | MT1-MMP promoter luciferase reporter cells, luminescence | calls from a first round at 10 µM; hits with a dose series show EC50 in µM | 0.62% of 87,000 active;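 active = over half of the reporter light lost at 10 µM or EC50 under 50 µM; inactive = the rest and hits that failed the dose series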;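 also: actives suppress MT1-MMP promoter-driven transcription so potencies describe inhibitors; HT1080 fibrosarcoma cells; overnight exposure; toxic or luciferase-blocking compounds were not removed from the actives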
Hsc70 = Hsc70 inhibitors, probe displacement, primary screen, biochemical, fluorescence polarization (AID 568). Hsc70 fluorescence polarization, probe displacement; higher % means a stronger effect; strong numbers were not always called active. displacement, % at 20 µM; hits with a dose series show IC50 in µM. 83,000 tested, under 10 active;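 active = displacement above 50% without optical interference and an IC50 on retest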;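 also: ATPase domain with a fluorescein-tagged ATP probe; 0% = vehicle and 100% = excess ADP; read after one hour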
* = called active by the depositor. This is a subset; rates above refer to the full screens.

CC1(C)C(=O)Nc2ccccc2N1C(=O)COc1ccc(S(=O)(=O)N2CCOCC2)cc1Cl was read as WNV NS2B-NS3 inh -1.5, MT1-MMP promoter inactive and Hsc70 -1.4%.
Screening CS(=O)(=O)N1CCN(c2ccccc2NC(=O)c2cccnc2Cl)CC1 returned MT1-MMP promoter inactive and Hsc70 -2.1%.
`CC(C)=CC(=O)OCC(=O)Nc1ncc(Cl)c(C)c1Cl` gave MT1-MMP promoter inactive and Hsc70 -4.2%.
COc1ccc(C(c2sc3nc(C)nn3c2O)N2CC(C)OC(C)C2)cc1OC (stereo unspecified) was read as WNV NS2B-NS3 inh 0.27, MT1-MMP promoter inactive and Hsc70 0.1%.
`C#CCNc1c(C)c(C)nc2ncnn12` gave WNV NS2B-NS3 inh -0.29, MT1-MMP promoter inactive and Hsc70 5.7%.
Screening CCC(=O)N1c2ccc(S(=O)(=O)N(CCO)Cc3ccccc3)cc2CC1C (stereo unspecified) returned WNV NS2B-NS3 inh -1, MT1-MMP promoter inactive and Hsc70 -6.8%.
COCCn1c(SCC(=O)N2CCCCC2)nc2cccnc21 was read as WNV NS2B-NS3 inh -1.4, MT1-MMP promoter inactive and Hsc70 -4.1%.
Screening CCOc1ccc(OCC)c(NC(=O)CCn2c(=O)oc3ccccc32)c1 returned WNV NS2B-NS3 inh -0.47, MT1-MMP promoter inactive and Hsc70 0.7%.
CCNC(=O)Nn1c(C)nnc1C was read as WNV NS2B-NS3 inh 0.64, MT1-MMP promoter inactive and Hsc70 2.7%.
Screening O=C(CC1=NC2(CCCC2)Cc2ccccc21)N1CCOCC1 returned WNV NS2B-NS3 inh 0.32, MT1-MMP promoter inactive and Hsc70 2.9%.
Screening CCCCNC(=O)Nc1nnc(-c2ccc(Cl)cc2)o1 returned MT1-MMP promoter inactive and Hsc70 4.2%.
Screening COc1ccc(-c2nc(=S)[nH][nH]2)cc1 returned WNV NS2B-NS3 inh -0.87, MT1-MMP promoter inactive and Hsc70 5.2%.
For CCC(c1nnc(SCC(=O)N2CC(=O)Nc3ccccc32)n1Cc1ccccc1)N(C)C (stereo unspecified) the results were WNV NS2B-NS3 inh -0.04, MT1-MMP promoter inactive and Hsc70 3.4%.
Screening Cc1cc(N2CCOCC2)nc2ccc(NC(=O)CCC(=O)N3CCCC(C)C3)cc12 (stereo unspecified) returned WNV NS2B-NS3 inh -0.94, MT1-MMP promoter inactive and Hsc70 -7.2%.
For CCc1cccc(CC)c1NC(=O)CN1CCN(c2ccccc2)CC1 the results were WNV NS2B-NS3 inh 1.4, MT1-MMP promoter inactive and Hsc70 0.0%.
Cc1cc[n+](CCC(=O)O)c2ccccc12 was read as MT1-MMP promoter inactive and Hsc70 -0.7%.
Cc1cccc(OCc2nnc(SCC(=O)N3c4ccccc4CC3C)n2C)c1C (stereo unspecified) was read as MT1-MMP promoter inactive and Hsc70 2.3%.
`CN(C)Cc1nc2ccccc2c(=O)n1Cc1nc(C(C)(C)C)cs1` gave WNV NS2B-NS3 inh 1.2, MT1-MMP promoter inactive and Hsc70 0.0%.
Screening CCS(=O)(=O)N1Cc2ccccc2CC1C(=O)Nc1nc2ccccc2[nH]1 (stereo unspecified) returned WNV NS2B-NS3 inh -0.54, MT1-MMP promoter inactive and Hsc70 1.8%.
Screening COc1ccccc1-n1nc(C(=O)Nc2ccc3c(c2)OCO3)c2ccccc2c1=O returned WNV NS2B-NS3 inh -0.16, MT1-MMP promoter inactive and Hsc70 2.4%.
Screening Cn1c(C(=O)OC(C(=O)NC2CCCC2)c2ccncc2)cc2sccc21 (stereo unspecified) returned WNV NS2B-NS3 inh 0.36, MT1-MMP promoter inactive and Hsc70 2.9%.
Screening O=C(Nc1ccc2nn(-c3ccccc3)nc2c1)c1ccc(Br)o1 returned WNV NS2B-NS3 inh -0.84, MT1-MMP promoter inactive and Hsc70 0.6%.
COCc1nnc(NC(=O)CCc2ccccc2)s1 was read as WNV NS2B-NS3 inh -0.07, MT1-MMP promoter inactive and Hsc70 -0.6%.
O=C(c1cc2nc(-c3ccco3)cc(C(F)(F)F)n2n1)N1CCN(Cc2ccccc2)CC1 was read as MT1-MMP promoter inactive and Hsc70 8.0%.
For CCOC(=O)CSc1nc(-c2ccc(OC)cc2)ns1 the results were WNV NS2B-NS3 inh -0.23, MT1-MMP promoter inactive and Hsc70 2.2%.
For CC(C)(C)n1nnnc1C(c1ccc(Cl)cc1)N1CCSCC1 (stereo unspecified) the results were MT1-MMP promoter inactive and Hsc70 2.5%.
For Nc1ccccc1SCc1cn2cccnc2n1 the results were WNV NS2B-NS3 inh -0.14, MT1-MMP promoter inactive and Hsc70 -0.9%.
For COc1cccc(C2CC(c3ccccc3)Nc3nc(N)nn32)c1 (stereo unspecified) the results were WNV NS2B-NS3 inh 0.21, MT1-MMP promoter inactive and Hsc70 -2.5%.
`CCCCCn1c(SCC(=O)OC)nc2c1c(=O)[nH]c(=O)n2C` gave WNV NS2B-NS3 inh -0.43, MT1-MMP promoter inactive and Hsc70 1.2%.
CCCCC(c1nnnn1CCOC)N1CCN(Cc2ccccc2)CC1 (stereo unspecified) was read as MT1-MMP promoter inactive and Hsc70 -2.5%.
For O=c1cc(-c2ccccc2F)oc2ccccc12 the results were MT1-MMP promoter inactive and Hsc70 0.7%.
`O=C(Nc1ccccc1N1CCCCC1)c1cccs1` gave WNV NS2B-NS3 inh 1.3, MT1-MMP promoter inactive and Hsc70 2.3%.
Cc1ccc(OCc2nc(-c3ccccn3)no2)c(Br)c1 was read as WNV NS2B-NS3 inh 4.5e-05, MT1-MMP promoter 2.2µM* and Hsc70 2.8%.
For COc1ccccc1N(CC(=O)NCCc1ccccc1)S(C)(=O)=O the results were WNV NS2B-NS3 inh 1.5, MT1-MMP promoter inactive and Hsc70 5.9%.
`O=C(NCCCN1CCOCC1)C1CC(=O)N(CCc2ccccc2)C1` (stereo unspecified) gave WNV NS2B-NS3 inh -0.23, MT1-MMP promoter inactive and Hsc70 0.8%.
For Cc1ccc(NC(=O)C2CCCN(S(=O)(=O)c3cnc[nH]3)C2)cc1F (stereo unspecified) the results were WNV NS2B-NS3 inh 0.3, MT1-MMP promoter inactive and Hsc70 2.6%.
CN=C1c2cc3cc(OC)ccc3n2CCN1C was read as MT1-MMP promoter inactive and Hsc70 -1.8%.
Screening Cc1c(-c2nc(N)nc(Nc3ccc(F)cc3)n2)oc2ccccc12 returned WNV NS2B-NS3 inh 0.3, MT1-MMP promoter inactive and Hsc70 2.1%.
For CCCCCCCNC1=CC(=O)CC(c2ccco2)C1 (stereo unspecified) the results were MT1-MMP promoter inactive and Hsc70 -0.2%.
For O=C(COC(=O)Cc1cn2ccsc2n1)NCc1ccc2c(c1)OCO2 the results were WNV NS2B-NS3 inh -1, MT1-MMP promoter inactive and Hsc70 -1.6%.
For O=C(NCCCn1ccnc1)c1noc2c1CCCC2 the results were WNV NS2B-NS3 inh -1.5, MT1-MMP promoter inactive and Hsc70 0.8%.
Screening CN1CCN(c2ccccc2NC(=O)Cc2cn(C)c3ccccc23)CC1 returned WNV NS2B-NS3 inh 0.38, MT1-MMP promoter inactive and Hsc70 1.5%.
For Cc1cc2c(=O)n(C)c(SCC(=O)c3cc4ccccc4o3)nc2s1 the results were WNV NS2B-NS3 inh 0.62, MT1-MMP promoter inactive and Hsc70 -14%.
Screening Cc1cccc(NC2=C(Cl)C(=O)OC2NC(=O)c2ccccc2)c1 (stereo unspecified) returned MT1-MMP promoter inactive and Hsc70 -3.1%.
`Cc1ccc(CNC(=O)Nc2cccs2)cc1` gave WNV NS2B-NS3 inh -0.13, MT1-MMP promoter inactive and Hsc70 0.9%.
`CCC(C)(C)n1nnnc1C(c1ccc(O)c(OC)c1)N1CCN(c2nc3ccccc3s2)CC1` (stereo unspecified) gave WNV NS2B-NS3 inh 0.47, MT1-MMP promoter inactive and Hsc70 -5.6%.
`Cn1cccc1C(=O)NC(=O)CSc1nc2ccccc2s1` gave WNV NS2B-NS3 inh 0.81, MT1-MMP promoter inactive and Hsc70 -2.4%.
Screening O=C(NCCCN1CCOCC1)C(C(=O)c1ccccc1)n1ccccc1=O (stereo unspecified) returned WNV NS2B-NS3 inh -0.74, MT1-MMP promoter inactive and Hsc70 -4.7%.
Screening Fc1ccccc1N1CCN(C(c2ccccn2)c2nnnn2C2CCCCC2)CC1 (stereo unspecified) returned WNV NS2B-NS3 inh -0.24, MT1-MMP promoter inactive and Hsc70 0.3%.
Screening COC(=O)C(C)N(C(=O)c1cccc(Cl)c1)c1c(C)cccc1C (stereo unspecified) returned MT1-MMP promoter inactive and Hsc70 -4.2%.
Screening CC(C)(C)c1ccc(-c2n[nH]c(=S)n2C2CCCC2)cc1 returned MT1-MMP promoter inactive and Hsc70 3.4%.
Cn1c(NC(=O)c2ccccc2)c(-c2cccs2)c(=O)c2ccccc21 was read as MT1-MMP promoter inactive and Hsc70 -0.3%.
Screening CN(C(=O)c1ccccc1Cl)C1CCCCC1 returned WNV NS2B-NS3 inh -0.56, MT1-MMP promoter inactive and Hsc70 -3.3%.
Screening Nc1ccc2oc(CCc3ccccc3)nc2c1 returned WNV NS2B-NS3 inh -1.1, MT1-MMP promoter inactive and Hsc70 -0.7%.
`CCn1cc([N+](=O)[O-])c(C(=O)N2N=C3/C(=C/c4cccs4)CCCC3C2c2cccs2)n1` (stereo unspecified) gave MT1-MMP promoter inactive and Hsc70 3.3%.
`Cc1ccc(C)c(-n2c(CNc3ccc(F)cc3)nnc2SCC(N)=O)c1` gave WNV NS2B-NS3 inh -1.8, MT1-MMP promoter inactive and Hsc70 -5.7%.
`COc1ccc(C2C(C(C)=O)=C(C)N=c3s/c(=C\c4ccco4)c(=O)n32)c(OC)c1` (stereo unspecified) gave WNV NS2B-NS3 inh -0.25, MT1-MMP promoter inactive and Hsc70 -12%.
CC(C)(CO)NS(=O)(=O)c1ccc2c(c1)oc(=O)c1cc(S(=O)(=O)NC(C)(C)CO)ccc12 was read as WNV NS2B-NS3 inh 1.9, MT1-MMP promoter inactive and Hsc70 -3.8%.
Screening CC(C)(O)C#Cc1ccc(C(=O)N2CCC(C(N)=O)(N3CCCCC3)CC2)cc1 returned WNV NS2B-NS3 inh -0.31, MT1-MMP promoter inactive and Hsc70 8.2%.
`CC1CCN(C(=O)c2ccc(-n3cnnn3)cc2)CC1` gave MT1-MMP promoter inactive and Hsc70 0.7%.
For Cc1cc(SC(C)C(=O)Nc2c(C)n(C)n(-c3ccccc3)c2=O)nc2ccccc12 (stereo unspecified) the results were MT1-MMP promoter inactive and Hsc70 1.6%.
For CC(C)CC(=O)Nc1cc(NC(=O)CC(C)C)cc(C(=O)NC(C)(C)C)c1 the results were MT1-MMP promoter inactive and Hsc70 2.6%.
For CCC(C)(C)n1nnnc1C(c1ccc(C)cc1)N1CCC(C)CC1 (stereo unspecified) the results were MT1-MMP promoter inactive and Hsc70 -3.1%.
Screening Cn1cccc1Cc1nnc(SCC(=O)NC2CCCCC2)n1CCc1ccccc1 returned WNV NS2B-NS3 inh -1.1, MT1-MMP promoter inactive and Hsc70 3.9%.
`O=C(Cn1nc(Cc2ccncc2)c2ccccc2c1=O)N1CCN(C(=O)c2ccco2)CC1` gave WNV NS2B-NS3 inh 0.84, MT1-MMP promoter inactive and Hsc70 2.2%.
For Oc1ccc(Nc2nc(NCC3CCCO3)c3ccccc3n2)cc1 (stereo unspecified) the results were WNV NS2B-NS3 inh -2, MT1-MMP promoter inactive and Hsc70 -6.8%.
Screening O=C(CCSc1nnc2ccccn12)Nc1ccc(F)cc1 returned WNV NS2B-NS3 inh 0.62, MT1-MMP promoter inactive and Hsc70 -2.4%.
Screening COc1cccc(OCCCCSc2ncccn2)c1 returned WNV NS2B-NS3 inh 1.6, MT1-MMP promoter inactive and Hsc70 -5.8%.
For Cn1c(=O)n(C)c2cc(CN3C(=O)OC(C)(C)C3(C)O)ccc21 (stereo unspecified) the results were WNV NS2B-NS3 inh 1.9, MT1-MMP promoter inactive and Hsc70 2.0%.
For O=S(=O)(Cc1ccc(Cl)cc1)N1CCN(Cc2ccccc2)CC1 the results were WNV NS2B-NS3 inh -0.58, MT1-MMP promoter inactive and Hsc70 1.9%.
`O=C(NCc1ccco1)C1CCCN(S(=O)(=O)c2cnc[nH]2)C1` (stereo unspecified) gave WNV NS2B-NS3 inh 0.15, MT1-MMP promoter inactive and Hsc70 -3.8%.
Screening Cc1ccccc1Nc1nc(N)nc(COC(=O)CCS(=O)(=O)c2ccccc2)n1 returned WNV NS2B-NS3 inh -0.47, MT1-MMP promoter inactive and Hsc70 -0.9%.
Screening CCOC(=O)Cc1csc(NC(=O)CSc2nnnn2-c2ccc(C)c(C)c2)n1 returned MT1-MMP promoter inactive and Hsc70 0.2%.

Bioassay records deposited in PubChem BioAssay by several laboratories.
